Ba CapD inh – CapD enzyme inhibition; purified CapD enzyme, fluorescence intensity read-out; active compounds read low; some hits fall short of the stated cut; z-score (test concentration not listed); hit rate 0.23% among 140,000; AID 492967;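 active = z-score under -4 in either of two replicates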;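 note: stock transfer was 100 nL into about 40 µL; score is relative to mean and spread of the plate; one replicate is shown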
AID504770 – E. coli YBA685 growth inhibition, screen for V. cholerae RctB inhibitors. E. coli YBA685 rctB-dependent plasmid, OD600 growth, 3 h; active compounds read low. z-score (no concentration beside the values). hit rate 0.27% among 130,000;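 active = z-score under -2 on both plates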;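 note: wells of about 30 µL received 100 nL stock; score is relative to mean and SD of the test wells; the first replicate is given; strong numbers were not always called active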
Starred values were filed as active, the others as inactive; i = inactive; . = no result given; & = joins results of further samples.

SMILES,Ba CapD inh,AID504770
O=C(NCCN1CCN(C(=O)c2ccc(Br)cc2)CC1)C(=O)Nc1ccc(F)cc1,0.745,.
Brc1c(CSc2nc3ccccc3[nH]2)nc2ccccn12,0.025,.
CNC(=S)NNC(=O)c1cccn(Cc2ccc(Cl)cc2Cl)c1=O,0.56,.
CS(=O)(=O)c1cccc(S(=O)(=O)N2CCSCC2)c1,-0.02,-0.35
O=C(O)Cc1ccccc1C(=O)N1CCN(C(=O)Cc2ccc(Br)cc2)CC1,1.33,.
C/S(=N\S(=O)(=O)c1cccc2nsnc12)c1ccc(C(F)(F)F)cn1 (stereo not drawn),-0.01,0.55
CCOc1ccc(C2SCC(=O)N2c2c(C)n(C)n(-c3ccccc3)c2=O)cc1 (stereo not drawn),0.07,.
CCCn1c(N)c(C(=O)CSc2nc3ccccc3c(=O)n2CCC)c(=O)[nH]c1=O,.,-0.65
COc1ccc(N2CC(NC(=O)N(Cc3ccccc3)C(C)C)CC2=O)cc1 (stereo not drawn),.,0.5
Cc1ccccc1-n1nc2c(c1NC(=O)/C=C\c1ccc3c(c1)OCO3)CS(=O)(=O)C2,14.9,0.65
Cc1ccc(C=NN2CCN(Cc3ccccc3)CC2)cc1,-0.56,0.95
CCOC(=O)C1CCN(c2c(C(=O)c3ccccc3)cnc3ccc(OC)cc23)CC1,-0.16,0.4

Entries from the list above with two or more sulfur atoms:
SMILES,Ba CapD inh,AID504770
CS(=O)(=O)c1cccc(S(=O)(=O)N2CCSCC2)c1,-0.02,-0.35
C/S(=N\S(=O)(=O)c1cccc2nsnc12)c1ccc(C(F)(F)F)cn1 (stereo not drawn),-0.01,0.55

New compounds follow
SMILES,Ba CapD inh,AID504770
N#Cc1cnn(-c2ccc(Cl)cc2)c1N,0.255,.
O=c1c(Cc2c(F)cccc2Cl)c(O)ccn1C1CCCCCC1,-0.045,.
CC1CCCCN1C(=O)Cn1cc(C(=O)C2CC2)c2ccccc21 (stereo not drawn),.,-1.35
Cc1ccc2nc(CSc3nnc(-c4ccccc4)o3)cc(=O)n2c1,.,1.6
CN(C)C(=O)/C=C/c1ccccc1,-0.55,-0.75
CC(=NCc1cccnc1)c1ccccc1O,-0.09,1.05
Cc1nc2cc(NC(=O)c3ccc(N4C(=O)CCC4=O)cc3)ccc2s1,0.11,-0.05
COc1ccc(N2C(=O)CSC2c2cccc(OC)c2OC)cc1Cl (stereo not drawn),-0.845,0.75
O=[N+]([O-])c1cc([As](=O)(O)O)ccc1O,-0.125&1.3,1.25
CSc1nc2ccc(N)cc2s1,0.06,1.7
Cc1noc(/C=C/c2cccs2)c1S(=O)(=O)N1CCC(C(=O)N2CCCCC2)CC1,-0.985,0.7
C=CCNc1nc(Nc2ccc([N+](=O)[O-])cc2)nc(N2CCCC2)n1,0.425,.
O=C(NC1CCCCC1)NC1CCN(CC(=O)c2ccc(Cl)cc2)CC1,.,-0.15
COCCNc1nc(SCC(=O)c2ccc(O)c(O)c2)nc2ccccc12,0.14,.
Cc1ccc(NC(=O)C2CC(=O)n3cnnc3N2)cc1Cl (stereo not drawn),.,-0.3
COc1ccc(C2NC(=O)c3c(sc4c3CCCC4)N2)cc1OC (stereo not drawn),0.58,.
Cn1nc(-c2ccc(-c3ccn[nH]3)s2)cc1C(F)(F)F,51.3,0.8
CNc1nc(C)c(C(=O)OCc2ccccc2)s1,-0.07,0.5
O=C(Cc1ncc(C(F)(F)F)cc1Cl)Nc1cccc(Br)c1,-0.01,.
COCc1cc(C)nc(SCC(=O)NC2C3CC4CC(C3)CC2C4)c1C#N (stereo not drawn),.,-1.3
Cn1nc(C(F)(F)F)c(-c2ccccc2)c1N1C(=O)CSCC1=O,-0.15,-0.9
Cn1c(P(=O)(O)c2ccccc2)nc2ccccc21,0.295,-0.6
CC(=O)NCC12CC3CC(CC(C3)C1)C2,0.865,-0.6
Cn1c(=O)c2[nH]c(NC3CCCC3)nc2n(C)c1=O,-0.35,-1.75
CCOc1ccc(NC(=O)CN2C(=O)/C(=C3\SC(=S)N(CCS(=O)(=O)O)C3=O)c3ccccc32)cc1,-0.115,.
COC(=O)c1ccc(C2C(C#N)=C(N)Oc3n[nH]c(-c4cccc([N+](=O)[O-])c4)c32)cc1 (stereo not drawn),0.375,.
COc1ccccc1Nc1nn(CN2CCCCC2C)c(=S)s1 (stereo not drawn),.,-0.05
Nc1ccccc1S(N)(=O)=O,-0.57,.
CCOC(=O)c1cnc2c(ccc3ccccc32)c1Nc1cccc(C(=O)OC)c1,0.69,.
Cn1nc(C(=O)N2CCc3ccccc32)c2c1-c1ccccc1S(=O)(=O)C2,0.755,0.7
O=C(CC12CC3CC(CC(C3)C1)C2)N1CCCOC1,.,-0.85
CC(=O)Nc1ccc(NC(=O)CSC2=C(C#N)C(c3ccco3)C3=C(CCCC3=O)N2)cc1 (stereo not drawn),1.42,.
COc1cc(C(=O)Nc2cc(-c3nc4ncccc4o3)ccc2C)ccc1OCc1ccc(Cl)cc1,0.655,.
Cc1ccc2[nH]c(=O)c(C3=NN(C(=O)CCC(=O)O)C(c4ccccc4)C3)c(-c3ccccc3)c2c1 (stereo not drawn),-0.015,0.05
OC(COc1ccc(F)cc1)CN1CCN(c2nccc(C(F)(F)F)n2)CC1 (stereo not drawn),0.06,0.1
Cc1ccnc(-n2c(C)cc(/C=C3\NC(=O)N(Cc4ccc(Cl)cc4)C3=O)c2C)c1,1.88,.
COC(=O)Nc1nccs1,0.465,0.15
CCOC(=O)C1=CC2(SC=C(C(=O)OCC)S2)C2=C(S1)C(C)(C)N(C(=O)Cc1ccccc1)c1ccc(C)cc12 (stereo not drawn),-0.69,.
O=C(Nc1nc2n(n1)C(c1ccccc1)C=C(c1ccccc1)N2)c1ccco1 (stereo not drawn),22.2,-0.2
O=C(COC(=O)c1ccccc1Br)Nc1ccccc1Cl,0.39,-0.55
O=C1Cc2cc(S(=O)(=O)N3CCCCC3)ccc2N1,1.25,0.1
Cc1cc(F)ccc1NCC(=O)Nc1ccc2c(c1)OCCO2,.,-0.35
CNC(=O)C12CC3(C)CC(C)(CC(C)(C3)C1)C2,0.86,-0.6
Cc1cc(C(F)(F)F)nn1Cc1ccc(C(=O)Nc2ncc(Br)s2)o1,-1.27,3.1
OC(C#CCN1CCCC1)c1ccccc1 (stereo not drawn),0.37,-0.55
O=C(/C(=N\N=C\c1cccs1)c1ccccc1)c1ccccc1,-0.385,.
CCOc1ccc(C(=O)OCC(=O)N2CCCC2)cc1,-0.37,-0.55
O=C(/C=C/c1cccs1)Nc1ccc(-c2nc3ccccc3[nH]2)cc1,0.44,-0.5

6 structures out of the list, arranged by molar mass, falling:
SMILES,Ba CapD inh,AID504770
O=C(COC(=O)c1ccccc1Br)Nc1ccccc1Cl,0.39,-0.55
O=C(/C(=N\N=C\c1cccs1)c1ccccc1)c1ccccc1,-0.385,.
Cc1cc(F)ccc1NCC(=O)Nc1ccc2c(c1)OCCO2,.,-0.35
O=C1Cc2cc(S(=O)(=O)N3CCCCC3)ccc2N1,1.25,0.1
CCOc1ccc(C(=O)OCC(=O)N2CCCC2)cc1,-0.37,-0.55
OC(C#CCN1CCCC1)c1ccccc1 (stereo not drawn),0.37,-0.55

Continuation.
SMILES,Ba CapD inh,AID504770
O=c1c2c([nH]c3ccccc13)C(=C1CCCC1)CC2,7.9,2.1
Cn1cnc2onc(C(=O)NC3CCCCC3)c2c1=O,0.44,-0.55
O=C(COc1ccccc1C(=O)O)Nc1cccc2ccccc12,0.695,-0.1
O=C(Cn1ccc2cc(S(=O)(=O)N3CCCC3)ccc21)NCc1ccccc1,0.47,0.55
CC(Sc1nnnn1-c1ccc(O)cc1)C(=O)c1ccccc1 (stereo not drawn),.,-0.5
Cc1cccc(/C(N)=N/O)c1,0.14,-0.8
CCOc1ccc(S(=O)(=O)NCc2ccc3c(c2)OCO3)cc1,.,0.1
CCOC(=O)N1CCC(NC(=O)c2cc(C(=O)NCc3ccc(F)cc3)ccc2CO)CC1,-0.14,0.15
O=C(NCc1ccccc1)c1ccc2nonc2c1,-0.27,.
Cc1onc2c(=O)n(-c3ccccc3)nc(-c3ccccc3)c12,-0.365,.
CC(C)(C)C(=O)/C=C1\SCC(=O)N1Cc1ccc(C#N)cc1,.,0.3
CN1CCN(C(=O)c2ccc(-n3cc(-c4ccncc4)cn3)cc2)CC1,1.64,.
CCCCN(CC)c1nc(N)c2c(N)nc(SCC(=O)O)cc2c1C#N,.,1.6
COC(=O)c1ccc(Oc2nc(Nc3ccccc3F)nc(N3CCCCC3C)n2)cc1 (stereo not drawn),4.74,0.3
Cc1cc(OC(C)C)nc(-c2ccccc2O)n1,-0.39,-0.6
Cc1ccc(NC(=O)c2sc3nc4c(c(-c5ccco5)c3c2N)CCC4)cc1Cl,-0.19,.
Cc1cc(=O)oc2c1ccc1occ(Nc3ccc(O)cc3)c12,-0.13,.
Cc1cc(-c2ccccc2)nc2cc(C(=O)NCC3CCCO3)nn12 (stereo not drawn),i,0.9
Cc1cc(C(=O)OCc2cc(Cl)cc3c2OCOC3)on1,.,0
CC(=O)Nc1ccc(OCc2c(C)noc2C)cc1,-0.16,-1.5
C=CC(=O)NC(=O)NC12CC3CC(CC(C3)C1)C2,.,-0.2
C#CCSc1nc2cc(Cl)ccc2o1,.,0.95
CNC(=O)Cn1nc(C)c(S(=O)(=O)N2CCOCC2)c1C,.,-0.15
Cc1noc(Nc2ccc(NC(=O)Cc3cccs3)cc2)c1C,.,2.05

2 entries from above, as labelled records:
canonical_smiles: CC(=O)Nc1ccc(OCc2c(C)noc2C)cc1
  Ba CapD inh = -0.16
  AID504770 = -1.5
canonical_smiles: C=CC(=O)NC(=O)NC12CC3CC(CC(C3)C1)C2
  Ba CapD inh = .
  AID504770 = -0.2

(next part)
SMILES,Ba CapD inh,AID504770
S=C(NCc1ccc(Cl)cc1)N1CCC(c2c[nH]c3ccccc23)CC1,-0.42,.
O=C(O)/C=C/C(=O)Nc1ccc(Br)c(Cl)c1,-0.695,-0.45
O=C(Nc1ccc(-c2noc(-c3ccccc3[N+](=O)[O-])n2)cc1)c1cccc(Br)c1,-0.225,.
Cc1ccc(OCCSc2nnc(N)s2)cc1,.,0.2
O=C(NC(Cc1cc(=O)[nH]c2ccccc12)C(=O)O)c1ccc(Cl)cc1 (stereo not drawn),.,0.35
Cc1nnc(Nc2c(C)n(C)n(-c3ccccc3)c2=O)[nH]c1=O,-0.095,-0.15
CN1CCN(c2nc(C34CC5CC(CC(C5)C3)C4)cs2)CC1,.,0.45
O=C(Cc1coc2cc3c(cc12)CCC3)OCC(=O)N1CCCC1=O,.,1.45
Cc1cc(C(=O)O)ccc1-n1c(C)ccc1C,-0.395,0.8
COc1cc2c(C(=O)NCc3ccc4c(c3)OCO4)cn(C)c(=O)c2cc1OC,0.355,-0.95
CC1(C)C(C#N)=C(SCC(N)=O)NC(=O)C1C#N (stereo not drawn),0.255,0.35
O=C(N/N=C/c1ccccc1)c1cc2ccccc2cc1O,-0.055,.
Cc1nc2c(o1)N(c1ccccc1)C(N)=C(C#N)C2c1c(Cl)nn(-c2ccccc2)c1C (stereo not drawn),-0.12,0.35
CCOC(=O)c1ccc(-n2c(C)cc(C=C3C(=O)N(C)C(=S)N(C)C3=O)c2C)cc1,0.255,.
CCCCOc1ccccc1C1C(C(=O)OC)=CN(CCOC23CC4CC(CC(C4)C2)C3)C=C1C(=O)OC,2.5,.
Cc1nc2ccccc2c(C(=O)O)c1O,-0.03,.
[O-]/[N+](=C\c1ccc(F)cc1)c1ccc(Cl)cc1,0.155,0.05
COc1ccc([N+](=O)[O-])cc1-c1ccc(C2C3=C(CC(C)(C)CC3=O)OC3=C2C(=O)CC(C)(C)C3)o1,0.495,.
COc1ccccc1C1CCN(S(=O)(=O)c2ccccc2OC(F)(F)F)CC1,0.27,.
Cc1ccc2oc(=O)c(/C=C(\O)c3ccco3)nc2c1,-0.355,-0.35
Cc1cccc(CCNC(=O)c2cc3c(=O)n(C)c4ccccc4c3s2)c1,10.6,0.25
CN(C)c1cccc(N(C)C)c1CNC(=O)C(C)(C)C,0.24,0.3
Cn1ncc2c(=O)[nH]cnc21,0.24,.

Screening data deposited in PubChem BioAssay by ICCB-Longwood Screening Facility, Harvard Medical School.
